CSC inhib: cancer stem cell viability inhibitors, primary screen, luminescence | inhibition, % at 7.5 µM | 300,000 tested, 1.1% active | AID 2717, 2010 | cancer stem cell-like cells viability;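 active = mean at 75% or more and at least half the replicates too; inconclusive = mean and replicates disagree; tested in HMLE shEcad cells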;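 also: 0% = median of negative and 100% = median of positive control wells; the first replicate is given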
Env fusion inh: inhibitors of HIV-1 Env-driven cell-cell fusion, primary screen, HeLa-JRFL effector, CEM21 target cells, luciferase; inhibition, % at 12.3 µM; 360,000 tested, 1.1% active; AID 651610, 2012;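 active = mean replicate inhibition score of at least 50 and every replicate individually at or above 50; inconclusive = only one of the two criteria met; inactive = mean below 50 and not all replicates reaching 50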;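 also: 0% = plate neutral controls and 100% = maraviroc near 300 nM; one replicate is shown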
eIF4H inh: human eIF4H binding inhibitors, primary screen, translation initiation inhibitor project, biochemical, uHTS, fluorescence polarization | Eukaryotic translation initiation factor 4H (Homo sapiens), Q15056 | eIF4H fluorescence polarization binding assay | inhibition, % at 35 µM | 290,000 tested, 0.94% active | AID 2012, 2009;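 active = 50% or more with normal probe brightness, or confirmed in later tests; inconclusive = above 50% with abnormal brightness, or retests that disagree; inactive = below 50% or failed in later tests; about a fifth of its hits are not listed in these tables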;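 also: calls also rest on retests at 20 µM and on dose response follow-up; 0% = protein and probe with vehicle and 100% = probe without protein; strong numbers were not always called active; many hits fall short of the cut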
MT1-MMP act inh: blockers of MT1-MMP proenzyme processing, primary screen, HT1080 RFP-PRO-GFP cells, GFP/RFP fluorescence | GFP/RFP ratio fluorescence, overnight; percent of plate control window, DMSO zero | Matrix metalloproteinase-14 (Homo sapiens), P50281 | 360,000 tested, 0.061% active | AID 651647, 2012 | GFP/RFP ratio change, % at 20 µM;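 active = GFP/RFP ratio change of at least 30% with cell ATP level not reduced by more than half and red fluorescence within 50% of control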; also: strong numbers were not always called active
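Read-out: GFP/RFP fluorescence ratio; Test system: RFP-PRO-GFP reporter HT1080 cells; Compound dosing: single-point 20 µM compound, 1% DMSO; Times: overnight compound exposure at 37 °C.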
Rce1 inh: yeast Rce1p protease inhibitors, primary screen, biochemical, fluorescence, cell-free homogeneous. CAAX prenyl protease 2 (Saccharomyces cerevisiae (strain ATCC 204508 / S288c)), Q03530. yeast membranes, quenched prenylated peptide cleavage fluorescence. calls only. 290,000 tested, 0.27% active. AID 2563, 2010;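 active = fall in fluorescence gain of 50% or more versus controls, with final raw signal at or below 3038400; inconclusive = same 50% fall but final raw signal above 3038400; inactive = fall in fluorescence gain under 50%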;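 also: plate controls were neutral control wells for no effect and wells lacking membranes for full effect; tested at 10 µM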
PABP FP inh: PABP poly(A) RNA binding inhibitors, primary screen, biochemical, fluorescence polarization, uHTS; Polyadenylate-binding protein 1 (Homo sapiens), P11940; 290,000 tested, 1% active; inhibition, % at 35 µM;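 active = 50% or more with normal probe brightness, or confirmed in later tests; inconclusive = above 50% with abnormal brightness, or retests that disagree; inactive = below 50% or failed in later tests; about a fifth of its hits are not listed in these tables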;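 also: calls also rest on retests at 20 µM and on dose response follow-up; controls were probe without protein and protein plus probe with vehicle; some compounds called inactive have numbers as strong as hits; many hits fall short of the cut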
Target sequence (P11940 whole entry, looked up): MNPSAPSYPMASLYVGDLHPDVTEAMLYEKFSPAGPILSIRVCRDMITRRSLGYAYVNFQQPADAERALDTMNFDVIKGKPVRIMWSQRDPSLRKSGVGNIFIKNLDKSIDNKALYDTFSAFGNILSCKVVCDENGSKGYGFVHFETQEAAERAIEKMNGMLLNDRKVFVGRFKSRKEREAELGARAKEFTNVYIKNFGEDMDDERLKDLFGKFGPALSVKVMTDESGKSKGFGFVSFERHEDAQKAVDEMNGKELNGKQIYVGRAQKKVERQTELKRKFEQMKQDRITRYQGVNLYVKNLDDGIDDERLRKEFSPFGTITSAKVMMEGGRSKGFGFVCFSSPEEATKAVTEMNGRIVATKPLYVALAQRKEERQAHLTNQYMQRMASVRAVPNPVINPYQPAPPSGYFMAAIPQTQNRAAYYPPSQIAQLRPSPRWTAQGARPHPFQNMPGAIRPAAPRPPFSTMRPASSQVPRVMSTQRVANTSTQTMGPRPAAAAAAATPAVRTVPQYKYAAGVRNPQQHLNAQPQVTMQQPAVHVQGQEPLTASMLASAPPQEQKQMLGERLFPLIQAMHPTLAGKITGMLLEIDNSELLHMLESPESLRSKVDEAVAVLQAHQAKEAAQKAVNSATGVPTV
UUG fidelity: modulators of yeast start codon fidelity, primary screen, whole organism, S. cerevisiae, single point, plate reader | AID 602363, 2012 | activity score, % at 18.7 µM | S. cerevisiae UUG-firefly luciferase reporter, luminescence/redox ratio | 350,000 tested, 0.13% active;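 active = replicate mean at a twofold rise or more, about +100% in these data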;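 also: firefly luciferase made from a UUG start codon reports start codon fidelity; reporter light over untreated wells divided by growth signal over untreated wells; some hits fall short of that in this replicate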
eIF4H inh retest: second read-out of eIF4H inh, no call of its own (marks repeat the call); inhibition, %; compound at 20 µM; confirmation average;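 mean of two retest wells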
PABP FP inh retest: recorded beside PABP FP inh, whose call it bears; inhibition, %; compound at 20 µM; confirmation repeats;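 mean of two retest wells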
MT1-MMP act inh RFP: also measured in MT1-MMP act inh; calls as there; RFP signal change, %; measured here: RFP expression control read;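 0 = vehicle wells; hits needed this value within 50% of zero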
An asterisk follows results filed as active; i = inactive; u = inconclusive; x = not tested or not shown.

SMILES | CSC inhib | Env fusion inh | eIF4H inh | MT1-MMP act inh | MT1-MMP act inh RFP | Rce1 inh | PABP FP inh | UUG fidelity | others
CC(=O)N1CCc2cc(S(=O)(=O)Nc3cccc(C(F)(F)F)c3)ccc21 | 5 | u | 2 | 7 | -7 | i | 2 | 2
CCCCCCn1c(N2CCN(c3ccccc3)CC2)nc2c1c(=O)n(C)c(=O)n2C | -1 | 48 | -12 | -5 | -13 | i | -1 | 40
Cc1cccc(NC(=O)N2C3CCCC2CC(NC(=O)C2CC2)C3)c1 (stereo not given) | -7 | -7 | 2 | 0 | 0 | i | 6 | -18
C/C(CC(=O)Nc1ccccn1)=N\NC(=O)c1ccccc1 | x | x | -10 | x | x | i | -14 | x
O=C(NCCOc1ccccc1F)c1ccc2c(=O)n3c(nc2c1)CCC3 | -7 | -35 | x | 3 | 0 | x | x | -6
CCn1nc(C)c(NC(=O)c2cnn3c(C(F)F)cc(-c4ccccc4)nc23)c1C | 16 | 26 | -5 | 3 | 0 | x | -4 | x
Cc1cccc(C)c1OCc1cc(C(=O)NCC2CC2)no1 | -15 | 8 | -7 | 1 | 4 | i | -7 | -12
CCOc1ccccc1NC(=O)CN1CCC(C(=O)c2ccc(F)cc2)CC1 | x | 2 | 1 | 1 | -6 | i | 1 | -5
Cn1nnnc1SCC(=O)Nc1ccc(N2CCOCC2)cc1 | -29 | x | 2 | 0 | 9 | i | 0 | x
COc1cccc(C(C)(O)c2nc(-c3ccccc3OC)cs2)c1 (stereo not given) | x | 8 | x | 0 | -3 | x | x | -9
O=C(Cc1ccc(Br)cc1)Nc1ccc(S(=O)(=O)N2CCCC2)cc1 | -2 | -9 | 8 | -2 | -5 | x | -1 | 9
CCCCCOc1ccc(C(=O)NC(C(=O)O)C(C)C)cc1 (stereo not given) | -10 | x | -5 | -2 | 5 | i | -1 | -27
CC(C)Cc1c(O)nc(SCC(=O)N2CCCCCC2)[nH]c1=O | 1 | -16 | 7 | -3 | 3 | i | 6 | -7
COc1ccc(C2=NN(C(=O)CSc3nnc(C)n3C)C(c3ccco3)C2)cc1 (stereo not given) | -9 | 11 | -5 | 4 | 4 | i | -1 | x
CC1CC(CC(=O)Nc2nc(-c3ccccc3)cs2)C(=O)O1 (stereo not given) | -4 | -5 | -1 | -2 | 2 | i | 31 | 6
COc1ccc(-n2cnc3cc(NCc4ccco4)ccc32)cc1 | 4 | x | -6 | 2 | -1 | i | -8 | 2
COc1ccc(/C(C)=N/NC(=O)c2ccccc2OCc2ccccc2)c(OC)c1 | -4 | -45 | 0 | -9 | -7 | i | -7 | 0
COc1ccc(-c2[nH]ncc2Oc2ccccc2OC)c(O)c1 | x | -89 | 2 | 11 | 0 | i | 4 | x
Cc1ccc(C(=O)COC(=O)c2cccc([N+](=O)[O-])c2)s1 | 0 | x | x | 2 | -1 | x | x | -14
CC(OC(=O)c1ccc(Cl)c(S(=O)(=O)N2CCCC2)c1)C(=O)NC1CCCCC1C (stereo not given) | 14 | x | -26 | x | x | i | 6 | x

Reprinted at random: 2 entries already listed, in no set order.
SMILES | CSC inhib | Env fusion inh | eIF4H inh | MT1-MMP act inh | MT1-MMP act inh RFP | Rce1 inh | PABP FP inh | UUG fidelity | others
CC(=O)N1CCc2cc(S(=O)(=O)Nc3cccc(C(F)(F)F)c3)ccc21 | 5 | u | 2 | 7 | -7 | i | 2 | 2
CCOc1ccccc1NC(=O)CN1CCC(C(=O)c2ccc(F)cc2)CC1 | x | 2 | 1 | 1 | -6 | i | 1 | -5

Structures shown so far that have an aryl methoxy group:
SMILES | CSC inhib | Env fusion inh | eIF4H inh | MT1-MMP act inh | MT1-MMP act inh RFP | Rce1 inh | PABP FP inh | UUG fidelity | others
COc1cccc(C(C)(O)c2nc(-c3ccccc3OC)cs2)c1 (stereo not given) | x | 8 | x | 0 | -3 | x | x | -9
COc1ccc(C2=NN(C(=O)CSc3nnc(C)n3C)C(c3ccco3)C2)cc1 (stereo not given) | -9 | 11 | -5 | 4 | 4 | i | -1 | x
COc1ccc(-n2cnc3cc(NCc4ccco4)ccc32)cc1 | 4 | x | -6 | 2 | -1 | i | -8 | 2
COc1ccc(/C(C)=N/NC(=O)c2ccccc2OCc2ccccc2)c(OC)c1 | -4 | -45 | 0 | -9 | -7 | i | -7 | 0
COc1ccc(-c2[nH]ncc2Oc2ccccc2OC)c(O)c1 | x | -89 | 2 | 11 | 0 | i | 4 | x

Entries above that contain an NH in an aromatic ring, in the order listed:
SMILES | CSC inhib | Env fusion inh | eIF4H inh | MT1-MMP act inh | MT1-MMP act inh RFP | Rce1 inh | PABP FP inh | UUG fidelity | others
CC(C)Cc1c(O)nc(SCC(=O)N2CCCCCC2)[nH]c1=O | 1 | -16 | 7 | -3 | 3 | i | 6 | -7
COc1ccc(-c2[nH]ncc2Oc2ccccc2OC)c(O)c1 | x | -89 | 2 | 11 | 0 | i | 4 | x

Additional compounds follow:
SMILES | CSC inhib | Env fusion inh | eIF4H inh | MT1-MMP act inh | MT1-MMP act inh RFP | Rce1 inh | PABP FP inh | UUG fidelity | others
CN(C(=O)COC(=O)CCC(=O)c1ccccc1)c1c(N)n(Cc2ccccc2)c(=O)[nH]c1=O | 15 | -14 | x | -4 | -2 | i | x | x
O=C1C[C@@H]2c3c(cccc3CN1Cc1ccc(F)cc1)C[C@@H](O)[C@H]2O | 4 | -11 | x | 6 | 5 | x | x | 5
O=S(=O)(Nc1ccccc1)c1cccc2nonc12 | -14 | -9 | -13 | -1 | -1 | i | -6 | -5
COc1ccc(C(NC(C)=O)c2c(O)ccc3ccccc23)cc1OC (stereo not given) | -15 | -6 | -3 | 0 | 0 | i | 45 | x
Cc1ccccc1NC(=O)CN1CCOCC1 | -16 | -33 | -7 | 0 | 0 | i | -4 | -18
CC(C)(C(=O)O)c1ccc(C(O)CCCN2CCC(C(O)(c3ccccc3)c3ccccc3)CC2)cc1 (stereo not given) | -3 | x | 3 | -1 | 4 | i | -7 | -2
CCOC(=O)c1ccc(NC(=O)Cn2nnc3ccccc32)cc1 | 2 | x | -12 | -8 | -24 | i | -7 | 4
COc1ccc(-c2cc(C)no2)cc1S(=O)(=O)N1CC(=O)Nc2ccccc21 | 0 | -2 | -10 | -4 | 5 | i | 10 | x
O=C(O)[C@@H]1CCCN1S(=O)(=O)c1cccc2cccnc12 | -5 | -1 | x | 1 | 0 | x | x | -43
CC1CCCC(NC(=O)CCCCCn2c(=S)[nH]c3ccsc3c2=O)C1C (stereo not given) | x | 10 | x | 4 | 0 | x | x | -15
CCOC(=O)CNC(=O)CSc1ncnc2c1nnn2-c1ccc(F)cc1 | 31 | x | 4 | 8 | 5 | i | 15 | -18
COc1ccc(/C=N/n2cncn2)cc1CSc1ccccn1 | -10 | x | -6 | -2 | -2 | i | -6 | x
CCOC(=O)c1c(NC(=S)N2CCCCC2)sc2c1CCN(C(=O)OCC)C2 | 93* | 21 | 4 | -2 | -3 | i | -1 | -5
COc1ccccc1NC(=O)CCSc1ccc(C)cc1 | 4 | -11 | -2 | 1 | -2 | i | 3 | x
COc1ccc(NCc2nnc(SCC(=O)N3CCCc4ccccc43)n2C)cc1 | 23 | x | -3 | 4 | 0 | i | 1 | -11
Cc1ccc(N(C(=O)c2ccccn2)C(C(=O)NC2CCCCC2)c2ccncc2)cc1 (stereo not given) | -12 | 8 | 3 | 1 | 4 | x | -4 | -9
CC(=O)C1=NN(c2ccccc2)C(c2ccc3c(c2)OCO3)N1c1ccccc1 (stereo not given) | 14 | -2 | -10 | -34 | -14 | i | 4 | x
O=C(CCSCCC(=O)NCCN1CCOCC1)NCCN1CCOCC1 | -9 | -87 | 8 | -1 | 3 | x | 6 | -12
O=C(CC1C(=O)NCCN1Cc1ccoc1)NCCCn1ncc2ccccc21 (stereo not given) | 2 | -10 | 9 | -2 | -2 | i | 3 | 6
CCc1ccc(S(=O)(=O)c2nnn3c2nc(N2CCOCC2)c2ccccc23)cc1 | -15 | -3 | -15 | -4 | 2 | i | 3 | -18
CC(C)c1nc(SCC(=O)c2c[nH]c3ccccc23)n[nH]1 | -17 | -7 | -3 | 2 | 3 | i | 3 | -1
CC(COc1ccccc1)N1CCC(CO)(Cc2ccccc2)CC1 (stereo not given) | 3 | -15 | -7 | 5 | 3 | i | -13 | x
CC(c1ccccc1)n1c(-c2ccc(Cl)cc2)n[nH]c1=S (stereo not given) | -5 | -5 | -11 | -3 | -4 | i | -2 | -26
COc1ccc2nc(N/C(N)=N/C(=S)Nc3ccc(C)c(C)c3)nc(C)c2c1 | 31 | x | -11 | x | x | i | 0 | x
CN(C)S(=O)(=O)N1CCc2ccccc2C1 | x | -22 | 5 | 1 | 4 | x | -4 | -14
Cc1cc(NC(=O)CSCC(=O)Nc2ccc(C)c(C)c2)no1 | 0 | x | x | -4 | -2 | x | x | -38
COc1ccc(CCNC(=O)c2ccc(COc3ccccc3OC)o2)cc1 | -7 | 4 | -8 | 1 | -4 | i | -4 | -6
O=C1CSCN1c1ccc(Cl)cc1 | -8 | -4 | 55 | -2 | 2 | i | 3 | -2 | eIF4H inh retest=32;PABP FP inh retest=14
Cc1cc(C(=O)CSc2n[nH]c(N)n2)c(C)n1C1CC1 | 4 | x | -6 | 2 | 5 | i | -2 | -20
O=C(c1ccc(-c2ccccc2)cc1)N1CCN(c2ccccc2)CC1 | 9 | -15 | 8 | 2 | -1 | i | -3 | -4
COC(=O)[C@@H]1CC[C@H](C)[C@@H](c2ccc(C)cc2)N1C(=O)c1ccc(/C=N/O[C@@H](C)CN2CCCCc3nc(C)c(C)cc32)cc1 | 90* | x | -2 | x | x | i | 21 | x
Cc1ccc(CN2Cc3cccc4c3[C@@H](CC2=O)[C@H](O)[C@H](O)C4)cc1 | -15 | -8 | x | 0 | 3 | x | x | -4
CCc1ccc(C(O)c2ncc(-c3cccc(C)c3)[nH]2)cc1 (stereo not given) | x | -20 | x | 6 | -2 | x | x | -17
COc1ccc(-c2nc(S(=O)(=O)c3ccccc3)c(N3CCCC3)o2)cc1 | x | -1 | x | 3 | 7 | x | x | 4
Cc1ccc(C)c(S(=O)(=O)Nc2cc(C)on2)c1 | -12 | x | 96 | -1 | 2 | i | 2 | -21 | eIF4H inh retest=-4;PABP FP inh retest=4
CSc1nc2[nH]c3c(c2c2nnnn12)CCCC3 | 13 | x | 1 | -2 | -12 | i | -5 | x
O=C1CN(S(=O)(=O)c2ccc(Cl)cc2C(F)(F)F)CCN1 | 3 | -4 | -6 | -5 | 9 | i | 49 | x
Cc1ccc(C(=O)/C=C/Nc2ccc([N+](=O)[O-])cc2Br)cc1 | -4 | x | 2 | 10 | 1 | i | 5 | -5
Cc1noc(C)c1S(=O)(=O)N(CC(=O)O)c1ccc2c(c1)OCO2 | -7 | x | 15 | -1 | 3 | i | 6 | -1
CN(C)S(=O)(=O)c1cccc(C(=O)Nc2cccnc2)c1 | -2 | x | 10 | 3 | -1 | i | 10 | -17

Source: PubChem BioAssay
